Source: PubChem BioAssay
Mtb bLac sens – beta-lactam sensitization of Mtb H37Rv. hit rate 0.27% among 330,000. AID 434955. inhibition, % at 25 µM. M. tuberculosis H37Rv growth with meropenem, percent inhibition; hits of this screen are not shown here;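 active = about 74% or more and at least 40 points above the plate without the antibiotic, then above 30% in a dose series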;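 note: growth measured after seven days incubation then overnight dye step; 0% = bacteria only wells and 100% = bacteria with antibiotic; twin plates without the antibiotic show which effects depend on it; some results filed as inactive read as strong as hits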
RecA intein inh – inhibitors of M. tuberculosis RecA intein splicing; cell-free RecA intein splicing, fluorescence; hit rate 0.75% among 290,000; AID 2221; inhibition, %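 (about 9 µM by stock and volumes)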; P9WHJ3; in the data active = inhibition above about 30%;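 note: 0% = vehicle wells and 100% = reference inhibitor control wells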
Target sequence (P9WHJ3 whole entry, looked up): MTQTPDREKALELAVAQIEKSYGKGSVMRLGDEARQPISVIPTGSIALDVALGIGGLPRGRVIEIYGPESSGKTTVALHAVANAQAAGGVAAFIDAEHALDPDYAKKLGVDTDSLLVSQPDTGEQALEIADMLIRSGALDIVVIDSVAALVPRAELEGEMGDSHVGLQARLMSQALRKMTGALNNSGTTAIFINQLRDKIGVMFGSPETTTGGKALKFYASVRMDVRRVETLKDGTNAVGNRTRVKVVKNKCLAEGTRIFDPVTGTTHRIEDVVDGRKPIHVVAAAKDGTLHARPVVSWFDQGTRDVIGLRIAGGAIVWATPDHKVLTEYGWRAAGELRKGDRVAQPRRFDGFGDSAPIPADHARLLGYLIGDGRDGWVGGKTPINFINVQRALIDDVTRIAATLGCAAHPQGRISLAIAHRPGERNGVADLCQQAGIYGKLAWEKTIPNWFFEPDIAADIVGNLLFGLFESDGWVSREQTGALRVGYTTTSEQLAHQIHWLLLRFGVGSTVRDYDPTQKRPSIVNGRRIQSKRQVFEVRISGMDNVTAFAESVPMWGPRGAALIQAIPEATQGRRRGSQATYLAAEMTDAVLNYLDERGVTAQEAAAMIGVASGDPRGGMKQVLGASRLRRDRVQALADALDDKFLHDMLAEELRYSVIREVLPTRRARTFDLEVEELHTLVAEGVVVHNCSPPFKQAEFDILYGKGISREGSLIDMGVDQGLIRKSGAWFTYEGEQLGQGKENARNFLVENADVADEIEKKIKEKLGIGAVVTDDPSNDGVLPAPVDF
Arbovirus inh – antivirals against arbovirus infection. arbovirus infection cell-based antiviral screen. hit rate 0.37% among 200,000. inhibition, % at 10 µM;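 active = inhibition from about 30%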;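 note: bluetongue infection of BSR cells; cell survival read as ATP light after 72 h; 0% = infected wells without compound and 100% = uninfected wells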
YopH PTP inh – YopH (Yersinia) phosphatase inhibition | inhibition, %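 (about 10 µM by stock and volumes)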 | hit rate 0.16% among 140,000 | fluorescence Ex485/Em525;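 active = inhibition of 50% or more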;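 note: controls were vehicle for no effect and minimum signal wells for full effect; inactives centre near -20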
Mtb H37Rv – M. tuberculosis H37Rv growth inhibitors, H37Rv strain (AID 1626); hit rate 0.95% among 220,000; M. tuberculosis H37Rv growth inhibition; higher % means a stronger effect; inhibition, % at 10 µM, or IC50 in µM where a hit was titrated;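 active = confirmed in a dose series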;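 note: bacteria incubated seven days before Alamar blue readout; 0% = bacteria only wells and 100% = bacteria with antibiotic wells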
Arbovirus inh repeat – further read-out of Arbovirus inh, marked with its call; inhibition, %; measured here: 10K subset replicate screen; many hits read low in the repeat;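 first of two repeat runs on a subset; 0% = infected and 100% = uninfected wells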
Starred values were filed as active, the others as inactive; . = no result given; & = joins results of further samples. The list is partial. The share of hits here may be higher or lower than overall.

SMILES	Mtb bLac sens	RecA intein inh	Arbovirus inh	YopH PTP inh	Mtb H37Rv	others
COCCCNCCOCCOc1ccc(Cl)cc1C(C)(C)C	45	-1.1	-35	-23	-2%
C/C(=N\O)c1ccc2c(c1)OCCO2	-5	.	-1	.	5%
COCCNC(=O)COC(=O)c1ccc(OCC(=O)Nc2ccccc2OC)c(OC)c1	1	-3.9	3	.	3%
O=C1c2ccccc2C(=O)N1c1ccc(Cl)cn1	-6	-3.3	1	-9	-4%
CC(C)c1ccc(OC(=O)NCCO)cc1	-13	-2.6	4	-24	-5%	Arbovirus inh repeat=8
CC(=O)NC1C(=O)N=C(SCC(=O)Nc2ccc(C(F)(F)F)cc2Cl)NC1=O (configuration not stated)	3	.	-2	.	-1%
CN(Cc1ccccc1)c1nc(N)nc(Cl)c1C=O	2	1.1	7	.	-3%
CC(C)c1ccccc1NS(=O)(=O)N(C)C	-1	-8.5	1	.	10%
Cc1cc(=O)oc(C)c1C(=O)OCC(=O)c1ccc(Cl)c(Cl)c1	-6	2.5	6	-12	2%
CCCn1c(N)c(C(=O)COC(=O)CCNS(=O)(=O)c2ccccc2F)c(=O)[nH]c1=O	1	-0.2	.	.	.
O=C(CN(c1ccc(Cl)c(Cl)c1)S(=O)(=O)c1ccccc1)N1CCc2ccccc2C1	-9	10	-1	-25	7%
COc1ccc(CN(C(=O)c2cc3ccccc3oc2=O)C2CCS(=O)(=O)C2)cc1 (configuration not stated)	-2	-0.9	.	.	4%
Nc1nnc(C(F)(F)F)s1	4	-2.4	4	.	-7%
COCCN(C(=O)CCC(=O)Nc1cc(C)on1)C(C(=O)NC(C)(C)C)c1ccc(OC)cc1 (configuration not stated)	0	-2.7	.	.	.
CCOC(=O)c1c(-c2ccccc2)cn2c(C)cc(C)nc12	-5	-24	4	.	9%
O=C(OC(C(=O)NCc1ccccc1)c1ccccc1)c1ccco1 (configuration not stated)	-5	-1.4	.	.	.
C=CCn1c(SCC(=O)Nc2sccc2C(N)=O)nc2sc(C)c(C)c2c1=O	8	3.8	3	10	0%
COc1ccc(OCc2n[nH]c(=S)n2-c2ccc(C)cc2)cc1	-2	-3.3	7	.	-5%
CC(NC(=O)C1CCC(C(C)(C)C)CC1)C(c1ccccc1)N1CCOCC1 (configuration not stated)	0	4.7	2	.	10%
CC(C)(C#N)c1cc(Cn2cncn2)cc(C(C)(C)C#N)c1	-7	-1.3	2	.	-2%&4%
O=C(O)C1CCCCC1C(=O)NCCCN1CCCC1=O (configuration not stated)	-6	0.6	.	.	.
O=C1C2C(c3cccc(/C=C/c4ccccc4)c3)CC=CC2C(c2ccc(C(F)(F)F)cc2)N1Cc1ccccc1 (configuration not stated)	-5	1.7	.	.	-4%
COc1ccc(NC2CCCN(C(=O)c3ccc(C)nc3)C2)cc1 (configuration not stated)	-5	-1.5	.	.	.
Cc1nc2ccc(NC(=O)c3ccc([N+](=O)[O-])cc3)cc2s1	6	-5.0	-4	-14	34%
CCC(C)(C)n1nnnc1C(C(C)C)N1CCN(C(=O)c2ccco2)CC1 (configuration not stated)	-5	3.5	.	.	.
CCOc1nc(SCCOc2ccc(Cl)cc2Cl)nc(N(C)C)n1	0	4.7	9	-20	3%
Cc1cccc(NC(=O)Cn2nc(-c3ccco3)ccc2=O)c1C	2	3.7	.	.	.
C=CCOc1ccc(CN(C)C(=O)C2CCCO2)cc1 (configuration not stated)	4	-1.2	.	.	.
CN1CCS/C1=C/C=C1\SC(=S)N(CC(=O)O)C1=O	-2	-4.5	-22	.	-11%
CCOc1cc(C(=O)N/N=C(\C)Cc2ccc(OC)cc2)cc(OCC)c1OCC	7	-5.3	-8	-21	0%
Nc1ccc(S(=O)(=O)NNC(=O)C(=O)NNc2ccccn2)cc1	3	-8.0	-4	-41	.
C/C=C1\CN2[C@H]3C[C@@]45c6ccccc6N(C)[C@H]4[C@@H]2CC1C3[C@H]5O (some centres not stated)	-4	-1.2	.	.	-9%
CCNC(=O)/C(C#N)=C/c1c(N2CCN(C)CC2)nc2c(C)cccn2c1=O	-1	-14	.	.	.
CC(=O)c1c(C)[nH]c(C(=O)OCC(=O)NCCc2ccc(Cl)cc2)c1C	-3	1.3	-4	-22	6%
COc1cc(/C=C2\SC(=S)N(CC(=O)Nc3cccnc3)C2=O)cc(OC)c1OC	1	1.4	-1	-26	1%
Cc1c(NC(=O)COC(=O)C(c2ccc(Cl)cc2)C(C)C)c(=O)n(-c2ccccc2)n1C (configuration not stated)	-2	-3.3	-5	-15	-10%
O=C(NC(=S)NCc1cccnc1)c1ccccc1F	-2	-0.1	.	.	.
N#Cc1ccccc1CN1C(=O)NC(Cc2c[nH]c3ccccc23)C1=O (configuration not stated)	-9	3.5	10	.	4%
COCc1nnc(N)s1	-11	-3.2	20	-32	-2%
COc1ccc(CCNC(=O)CSc2ccc(-c3ccccc3)nn2)cc1OC	-7	0.2	-3	-1	-1%
CCN1C(=O)N[C@@H](c2cccc(C(F)(F)F)c2)[C@H](C(=O)OC)[C@H]1C	-7	-0.5	.	.	-7%
COc1cc(CCC(=O)OCC(=O)N2CCc3ccccc32)cc(OC)c1OC	4	1.1	.	.	.
O=C(NCc1ccccc1)C(c1ccc(O)cc1)N(C(=O)c1cnccn1)c1ccccc1 (configuration not stated)	3	3.2	.	.	.
COc1ccc(N2C(=O)NC(=O)/C(=C\c3cn(C)c4ccccc34)C2=O)cc1	-6	-14	.	.	.
O=C(Nc1ccc(Cl)c(C(F)(F)F)c1)c1ccco1	10	.	6	-37	11%

Gathered by group: the compounds so far containing a COOH group (2)
SMILES	Mtb bLac sens	RecA intein inh	Arbovirus inh	YopH PTP inh	Mtb H37Rv	others
O=C(O)C1CCCCC1C(=O)NCCCN1CCCC1=O (configuration not stated)	-6	0.6	.	.	.
CN1CCS/C1=C/C=C1\SC(=S)N(CC(=O)O)C1=O	-2	-4.5	-22	.	-11%

Other records follow:
SMILES	Mtb bLac sens	RecA intein inh	Arbovirus inh	YopH PTP inh	Mtb H37Rv	others
CCc1ccc(C(C(=O)NCc2ccc(F)cc2)N(C(=O)c2csnn2)C2CC2)cc1 (configuration not stated)	-5	3.0	.	.	.
COc1ccc(S(=O)(=O)N2CCOC2CNC(=O)C(=O)NCc2ccccc2Cl)cc1 (configuration not stated)	-7	-0.5	.	.	.
O=C(NCc1ccncc1)c1cccc(S(=O)(=O)NCc2ccccc2)c1	1	-0.1	.	.	.
Cc1oc(C(C)(C)C)cc1C(=O)Nc1cccc(/C=C/C(=O)O)c1	-1	1.0	26	-26	4%
Cc1c(C(=O)NCCSCc2ccccc2Cl)cccc1[N+](=O)[O-]	-8	6.5	-3	-38	5%
O=C(NCCc1nc2ccccc2[nH]1)c1ccco1	-6	4.6	0	-24	0%
COc1ccc(NC(=O)CN(C)C(=O)C2=COCCO2)cc1	-6	-0.8	.	.	.
CCOc1ccc(C2C(C(=O)c3ccc(C)o3)=C(O)C(=O)N2CCN2CCOCC2)cc1OC (configuration not stated)	-1	-1.3	-3	-23	-5%
COc1ccc(OC)c(S(=O)(=O)N2CCC(C(=O)NCCc3ccc(OC)c(OC)c3)CC2)c1	0	0.6	2	-121	2%
CCC(=O)NCC(c1cccs1)N1CCOCC1 (configuration not stated)	4	0.6	0	-39	-8%
CCc1ccc(CNCCc2c[nH]c3ccccc23)cc1	18	2.7	.	.	.
O=C1CCCN2N=C(SCC(=O)Nc3cccc(Cl)c3)SC2=N1	-10	-0.7	.	.	.
O=C(NCC1CCCO1)C1CCCN(S(=O)(=O)c2cc(Cl)ccc2Cl)C1 (configuration not stated)	-14	1.1	.	.	.
CN(Cc1cccs1)C(=O)C1CC(=O)N(Cc2ccccc2)C1 (configuration not stated)	-8	-0.8	.	.	.
O=C1CC(/C=C/c2ccco2)=Nc2ccccc2N1	-8	-4.2	-1	-32	-1%
O=C(/C=C/c1ccc(Cl)cc1)NCCCn1ccnc1	-3	-2.7	.	.	.
COCCCNC(=O)C1CC(=O)N(CCc2ccc(OC)c(OC)c2)C1 (configuration not stated)	-6	-0.1	-4	-31	-11%
Cc1csc(NC(=O)NC2(C(F)(F)F)Oc3ccccc3O2)n1	5	-5.5	9	-34	3%	Arbovirus inh repeat=4
O=C(CN1CCc2ccccc2C1)N1CCN(S(=O)(=O)c2ccccc2)CC1	-1	-0.4	3	-35	-8%
O=C(Cn1nnc(-c2ccccc2-n2cnnn2)n1)N1CCCCC1	-12	-1.4	12	-8	-7%
CC(C)(C)c1ccc(S(=O)(=O)N2CCc3nc4ccccc4c(C(=O)O)c3C2)cc1	-1	2.0	.	.	.
Cc1cc(NS(=O)(=O)c2ccc(NC(=O)COc3ccccc3C(C)C)cc2)no1	-5	15	13	-4	-3%	Arbovirus inh repeat=6
COc1cccc(-n2c(N)cc(=O)nc2SCC(=O)Nc2cc(C)on2)c1	-7	-3.1	.	.	.
Cc1ccc(OCc2cc(C(=O)NCc3cn4ccccc4n3)no2)cc1C	4	2.6	.	.	.
COc1ccc(N2C(=O)C(Cc3ccccc3)NC2=S)cc1 (configuration not stated)	3	2.0	6	.	4%
CCOc1cc(S(=O)(=O)N2CCN(S(=O)(=O)CC)CC2)c(OCC)cc1-n1cnnn1	4	0.3	.	.	.
Cc1cc2cc(CN(CCN(C)C)C(=S)NCc3ccco3)c(=O)[nH]c2cc1C	4	-1.4	-14	.	1%
CCC(=NCCc1ccc(OC)c(OC)c1)c1ccccc1O	9	-1.3	.	.	.
COc1ccc(NC(=O)c2ccc(-n3cnnn3)cc2)c([N+](=O)[O-])c1	-2	-1.0	.	.	.
O=C(c1cc([N+](=O)[O-])ccc1N1CCOCC1)N1CCOCC1	-8	-0.7	-1	-23	5%

Looked up by structure from the entries so far, 4 records:
SMILES	Mtb bLac sens	RecA intein inh	Arbovirus inh	YopH PTP inh	Mtb H37Rv	others
Cc1csc(NC(=O)NC2(C(F)(F)F)Oc3ccccc3O2)n1	5	-5.5	9	-34	3%	Arbovirus inh repeat=4
CC(C)(C)c1ccc(S(=O)(=O)N2CCc3nc4ccccc4c(C(=O)O)c3C2)cc1	-1	2.0	.	.	.
COc1ccc(N2C(=O)C(Cc3ccccc3)NC2=S)cc1 (configuration not stated)	3	2.0	6	.	4%
CCC(=NCCc1ccc(OC)c(OC)c1)c1ccccc1O	9	-1.3	.	.	.

(cont.)
SMILES	Mtb bLac sens	RecA intein inh	Arbovirus inh	YopH PTP inh	Mtb H37Rv	others
NC(=O)[C@H]1CC2(CC(c3cccc(NC(=O)[C@H]4CCC(=O)N4)c3)=NO2)CN1C(=O)c1ccccc1 (some centres not stated)	-5	22	.	.	-10%
C[C@H](NC(=O)c1nc[nH]c1C(=O)N[C@@H](C)C(=O)OCc1ccccc1)C(=O)OCc1ccccc1	-4	6.0	.	.	.
CCOC(=O)C(=CNc1nc2ccc(C(=O)OCC)cc2s1)C(=O)OCC	71	1.1	.	.	1%
O=C(CCC(=O)N(CC(=O)NC1CCCCC1)Cc1ccccc1)Nc1nccs1	1	1.6	.	.	.
CS(=O)c1ccccc1O (configuration not stated)	0	-2.8	8	.	-5%
O=c1cc(COc2ccccc2[N+](=O)[O-])nc2sccn12	9	-1.7	.	.	-4%
CCc1nnc(NC(=O)C2CCCN(S(=O)(=O)c3ccc(OC)cc3)C2)s1 (configuration not stated)	-11	1.8	1	.	-8%
Cc1ccsc1C(=O)OCC(=O)N1CC(=O)Nc2ccccc21	-5	0.0	3	-33	2%
CCOC(=O)c1c(CSCc2ccccc2)oc2ccc(O)c(CN(C)C)c12	3	3.9	.	.	9%
COc1cc(OC)cc(OCC(O)Cn2ccnc2)c1 (configuration not stated)	9	-0.5	-5	-39	-13%
CCCn1c(N2CCN(C(=O)/C=C/C(=O)O)CC2)nc2ccccc21	-3	-5.5	.	.	.
O=C(c1cn(-c2ccc(Cl)c(Cl)c2)nn1)C1CC1	5	-0.5	16	.	13%
O=C1c2ccccc2C(=O)N1CCOc1ccccc1Br	4	2.9	.	.	.
O=S(=O)(c1ccccc1)c1nc(-c2ccco2)oc1NCc1cccnc1	1	1.8	0	-26	-4%
O=c1ccc(Oc2nc(N3CCOCC3)nc(N3CCOCC3)n2)nn1-c1ccccc1	10	-9.9	5	10	-3%
COc1ccc(C[C@H]2CN3C(=NC[C@H]3C)N2CCNC(=O)CCC2CCCCC2)cc1	5	-4.8	9	.	-3%
Cc1ccccc1-n1c(C)n[nH]c1=S	5	0.7	13	-24	-9%
COC(=O)c1ccc(NCCc2csc(-c3ccc(C)cc3)n2)c([N+](=O)[O-])c1	-6	-0.5	5	-21	-12%
CCCCc1nn(-c2cc(Cl)ccc2OC)c2c1C(=O)CCC2	-6	6.9	-8	-6	9%
COc1cccc(-n2c(Cc3cc(=O)[nH]c(=O)[nH]3)nnc2SCC(=O)N2CCCCC2)c1	1	-2.1	4	-23	1%	Arbovirus inh repeat=-4
Cc1ccc(NC(=O)CN2CCC(NC(=O)Cc3ccccc3)CC2)c(C)c1	-1	-5.8	-6	-23	3%
O=C(c1ccc(F)cc1)C1CCN(Cc2cn[nH]c2-c2ccc(F)cc2)CC1	-11	1.4	.	.	-15%
